NOMO-1 viab: STK33 inhibitor candidate reducing NOMO-1 cell viability. inhibition, % (concentration not given with the values). AID 2330. NOMO-1 AML viability, CellTiter-Glo luminescence, 72 h. 7.5% of 37,000 active;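 active means most replicates above 80%; inconclusive means exactly half above 80%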;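 further: wells of about 30 µL received 25 nL stock; 0% = median of vehicle wells and 100% = reference inhibitor level; the first replicate is given; inactives centre near 10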
Active calls of the source: *; ? = inconclusive.

cpd | SMILES | NOMO-1 viab
1 | C[C@H]1CN([C@@H](C)CO)C(=O)c2cc(NS(=O)(=O)c3cccs3)ccc2O[C@@H]1CN(C)Cc1ccc(Oc2ccccc2)cc1 | 4.1
2 | Clc1ccc2c(c1)nc(SCc1nnc(-c3ccccc3)o1)n2C1CCCCC1 | 23.2
3 | O=C1CC(c2ccc(O)cc2)Oc2cc(O[C@@H]3O[C@H](CO)[C@@H](O)[C@H](O)[C@H]3O)cc(O)c21 (stereo partly specified) | -7.1
4 | COc1ccc(NC(=O)Nc2ccc3c(c2)C(=O)N([C@H](C)CO)C[C@H](C)[C@@H](CN(C)C(=O)Nc2ccc(F)cc2)O3)cc1 | 6.6
5 | C[C@@H]1CN([C@@H](C)CO)C(=O)c2cc(NC(=O)C3CC3)ccc2O[C@@H]1CN(C)S(C)(=O)=O | -10.6
6 | O=C(CSc1nnc(-c2cccc(Cl)c2)n1-c1ccccc1)Nc1ccccc1 | -2.8
7 | C[C@@H]1CN([C@@H](C)CO)C(=O)c2cccc(NC(=O)Nc3ccc(C(F)(F)F)cc3)c2O[C@H]1CN(C)CC1CC1 | 82.6*
8 | N#Cc1c(SCC(=O)c2ccc(F)cc2)nsc1SCC(=O)c1ccc(F)cc1 | 30.3
9 | C[C@@H]1CN([C@H](C)CO)C(=O)c2cccc(NC(=O)Nc3ccccc3)c2O[C@@H]1CN(C)S(=O)(=O)c1cn(C)cn1 | -1.2
10 | O=C(COc1ccc(Cl)cc1)NCc1n[nH]c(=S)n1-c1cccc(Cl)c1 | -0.5
11 | C[C@@H]1CN([C@H](C)CO)C(=O)c2cccc(NC(=O)Nc3ccc(F)cc3)c2O[C@H]1CN(C)Cc1ccc(Cl)c(Cl)c1 | 95.8*
12 | C[C@@H]1CCCCO[C@H](CN(C)Cc2ccccc2)[C@@H](C)CN([C@H](C)CO)C(=O)c2cc(NC(=O)NC3CCCCC3)ccc2O1 | 2.6
13 | CCc1cc(Br)cc(C)c1NC(=O)CSc1nnc(-c2ccc(Cl)cc2)n1C | 3.9
14 | C[C@@H]1CCCCO[C@H](CN(C)Cc2ccc3c(c2)OCO3)[C@@H](C)CN([C@H](C)CO)C(=O)c2cc(NS(C)(=O)=O)ccc2O1 | 6.4
15 | C[C@H](CO)N1C[C@H](C)[C@H](CN(C)C(=O)Nc2ccccc2)Oc2c(NC(=O)c3ccc(-c4nccs4)cc3)cccc2C1=O | 19.6
16 | O=C(O)CN(Cc1ccccc1Cl)S(=O)(=O)c1ccc(Br)cc1 | 22.8
17 | Cc1cc(C(=O)Nc2cccc3c2O[C@H](CN(C)Cc2ccc(-c4ccccc4)cc2)[C@@H](C)CN([C@@H](C)CO)C3=O)n(C)n1 | ?
18 | Cn1c(CN2CCOCC2)nnc1SCC(=O)Nc1sc2c(c1C#N)CCC(C(C)(C)C)C2 (stereo unspecified) | -12.3
19 | C[C@H]1CN([C@@H](C)CO)C(=O)c2cc(NC(=O)Nc3ccc(C(F)(F)F)cc3)ccc2O[C@H]1CN(C)Cc1ccc(C(=O)O)cc1 | 8.3
20 | C[C@@H]1CN([C@@H](C)CO)C(=O)c2cc(NC(=O)Nc3cccc4ccccc34)ccc2O[C@@H]1CN(C)Cc1ccc2c(c1)OCO2 | 42.7
21 | Cc1ccnc(SCC(=O)c2ccc([N+](=O)[O-])cc2)n1 | 27.9
22 | COc1ccc(C2C3=C(CC(C)(C)CC3=O)N(C)C3=C2C(=O)CC(C)(C)C3)cc1 | 7.1
23 | Cc1ccc(C2C(C#N)=C(N)OC(C3CC3)=C2C#N)cc1 (stereo unspecified) | 34.1
24 | COc1c(C2OCC(O)C(O)C2O)c(O)cc2oc(-c3ccc(OC4OC(C)C(O)C(O)C4O)cc3)cc(=O)c12 (stereo unspecified) | 2.3
25 | Cc1noc(C)c1NC(=O)N(C)C[C@H]1Oc2ccc(NC(=O)C3CC3)cc2CC(=O)N([C@@H](C)CO)C[C@@H]1C | 2.8
26 | Cc1cc(C(=O)Nc2cccc3c2O[C@@H](CN(C)Cc2ccc(C(F)(F)F)cc2)[C@H](C)CN([C@H](C)CO)C3=O)n(C)n1 | 57.0
27 | Cc1ccc(S(=O)(=O)N(C)C[C@H]2Oc3ccc(NC(=O)NC4CCCCC4)cc3CC(=O)N([C@H](C)CO)C[C@H]2C)cc1 | 22.4
28 | C[C@@H]1CN([C@H](C)CO)C(=O)c2cc(NC(=O)Nc3ccc(C(F)(F)F)cc3)ccc2O[C@H]1CN(C)Cc1ccc2c(c1)OCO2 | 53.6
29 | C[C@@H]1CN([C@H](C)CO)C(=O)c2cccc(NS(=O)(=O)c3cccs3)c2O[C@H]1CN(C)Cc1ccc(C(=O)Nc2ccccc2N)cc1 | 44.1
30 | C[C@H]1CN([C@@H](C)CO)C(=O)Cc2cc(NC(=O)Nc3cccc4ccccc34)ccc2O[C@H]1CN(C)CC1CCCCC1 | 57.5
31 | Cc1ccc(S(=O)(=O)N(C)C[C@H]2Oc3c(NC(=O)c4cc(C)nn4C)cccc3C(=O)N([C@H](C)CO)C[C@H]2C)cc1 | -1.9
32 | COc1cccc(OCC(=O)Nc2ccccc2[N+](=O)[O-])c1 | 8.7
33 | O=S(=O)(Cc1cccc(C(F)(F)F)c1)Cc1cccc(C(F)(F)F)c1 | 24.3
34 | COc1ccc2c3c1O[C@H]1C[C@@H](O)C=C[C@@]31CCN(C)C2 | -12.6
35 | Cc1c(Cl)c(C)c(Cl)c(OCC(=O)Nc2ccccc2N2CCOCC2)c1Cl | 18.3
36 | Cc1noc(C)c1NC(=O)Nc1ccc2c(c1)C(=O)N([C@H](C)CO)C[C@H](C)[C@H](CN(C)C(=O)Nc1ccc3c(c1)OCO3)OCCCC[C@@H](C)O2 | 29.0
37 | C[C@@H]1CN([C@@H](C)CO)C(=O)c2cccc(NC(=O)Nc3ccc4c(c3)OCO4)c2O[C@H]1CN(C)Cc1ccc(C(F)(F)F)cc1 | 108.7*
38 | C[C@@H]1CN([C@H](C)CO)C(=O)c2cc(NC(=O)Cn3cnnn3)ccc2O[C@@H]1CN(C)S(=O)(=O)c1ccc(F)cc1 | 11.8
39 | O=C(COc1ccc(Br)cc1)Nc1ccc(Cl)c(-c2nc3ncccc3o2)c1 | -31.6
40 | CC1=C(C(=O)OC(C)C)C(c2ccccc2)NC(=S)N1 (stereo unspecified) | 15.6
41 | Cc1cccc(N(CC(=O)Nc2c(C)n(C)n(-c3ccccc3)c2=O)S(C)(=O)=O)c1 | 26.1
42 | C[C@@H]1CN([C@H](C)CO)C(=O)c2cccc(NC(=O)Nc3ccc(C(F)(F)F)cc3)c2O[C@H]1CN(C)S(=O)(=O)c1ccccc1 | 25.5
43 | C[C@H]1CN([C@@H](C)CO)C(=O)c2cccc(NC(=O)c3nc4ccccc4s3)c2O[C@@H]1CN(C)C(=O)NC1CCCCC1 | 12.5
44 | CSc1ccccc1NC(=O)c1cnn2c(C(F)(F)F)cc(-c3ccco3)nc12 | 37.6
45 | C[C@@H]1CN([C@H](C)CO)C(=O)Cc2cc(NC(=O)Cc3cn(C)c4ccccc34)ccc2O[C@@H]1CN(C)C(=O)Nc1cccc2ccccc12 | 8.7
46 | COc1ccc(S(=O)(=O)Nc2ccc3c(c2)CC(=O)N([C@H](C)CO)C[C@@H](C)[C@@H](CN(C)C(=O)Nc2ccccc2)O3)cc1 | 20.6
47 | CCc1cccc(C)c1NC(=O)CN(C)S(=O)(=O)c1ccc(Cl)cc1 | -9.4
48 | COc1ccc(S(=O)(=O)Nc2ccc3c(c2)CC(=O)N([C@@H](C)CO)C[C@@H](C)[C@@H](CN(C)S(=O)(=O)c2cn(C)cn2)O3)cc1 | 10.0
49 | COc1ccc(NC(=O)N(C)C[C@H]2OCCCC[C@@H](C)Oc3ccc(NC(=O)Nc4ccc(F)cc4)cc3C(=O)N([C@H](C)CO)C[C@@H]2C)cc1 | 23.6
50 | C[C@H](CO)N1C[C@H](C)[C@H](CN(C)CC2CCCCC2)Oc2ccc(NC(=O)C3CCCCC3)cc2CC1=O | 20.2

Going on with the list:
cpd | SMILES | NOMO-1 viab
51 | CCCCc1cc2ccccc2c(OCCN(C)C)n1 | 12.0
52 | COc1ccc([N+](=O)[O-])cc1NC(=O)CN(c1ccc(F)cc1)S(C)(=O)=O | 2.6
53 | Cc1ccc(S(=O)(=O)N(C)C[C@@H]2Oc3c(NC(=O)C4CCOCC4)cccc3C(=O)N([C@H](C)CO)C[C@@H]2C)cc1 | -9.7
54 | C[C@@H]1CN([C@H](C)CO)C(=O)c2cc(NC(=O)CCCCCC(=O)Nc3ccccc3N)ccc2O[C@@H]1CN(C)S(=O)(=O)c1ccc(F)cc1 | 2.2
55 | C[C@@H]1CN([C@H](C)CO)C(=O)Cc2cc(NC(=O)Nc3ccc(F)cc3)ccc2O[C@H]1CN(C)C(=O)Nc1ccc(C(F)(F)F)cc1 | 59.0
56 | Cc1ccc(S(=O)(=O)NC(C)C(=O)Nc2ccc(Oc3ccccc3)cc2)cc1 (stereo unspecified) | 11.0
57 | Cc1ccc(Cl)cc1NC(=O)CSc1nnc(-c2cccs2)n1C | -1.3
58 | CC(=O)OC1CCC2C3CCc4cc(O)ccc4C3CCC12C (stereo unspecified) | 99.4*
59 | C[C@@H]1CN([C@@H](C)CO)C(=O)c2cc(NC(=O)CCC(F)(F)F)ccc2O[C@@H]1CN(C)Cc1ccncc1 | 11.4
60 | O=C(COc1ccc(C(=O)Nc2cccc(C(F)(F)F)c2)cc1)Nc1cccc(Cl)c1 | 32.4
61 | COc1ccc(S(=O)(=O)N(C)CC(=O)Nc2cc(Cl)c(Cl)cc2Cl)cc1 | -9.9
62 | COc1ccc(NC(=O)N(C)C[C@H]2Oc3c(NC(=O)Nc4ccc5c(c4)OCO5)cccc3C(=O)N([C@@H](C)CO)C[C@H]2C)cc1 | 17.5
63 | Cc1ccc(S(=O)(=O)Nc2ccc3c(c2)C(=O)N([C@@H](C)CO)C[C@@H](C)[C@H](CN(C)CC2CCCCC2)O3)cc1 | -5.7
64 | C[C@@H]1CCCCO[C@@H](CN(C)S(=O)(=O)c2cn(C)cn2)[C@@H](C)CN([C@H](C)CO)C(=O)c2cc(N(C)C)ccc2O1 | 11.3
65 | CC(=O)c1ccc(O)c(CC=C(C)C)c1 | 15.2
66 | Cc1noc(C)c1NC(=O)N(C)C[C@H]1Oc2ccc(NC(=O)C3CCCCC3)cc2C(=O)N([C@@H](C)CO)C[C@@H]1C | -10.8
67 | COC(=O)c1ccsc1NC(=O)c1ccsc1NC(=O)c1cccnc1 | -5.9
68 | C[C@@H]1CN([C@H](C)CO)C(=O)c2cccc(NS(=O)(=O)c3ccccc3)c2O[C@H]1CN(C)C(=O)Nc1cccc2ccccc12 | -0.9
69 | C[C@@H]1CCCCO[C@H](CN(C)S(C)(=O)=O)[C@@H](C)CN([C@H](C)CO)C(=O)c2cc(NC(=O)c3ccccc3)ccc2O1 | 11.1
70 | CCOc1ccc2sc(C=NC(C)CC)c(O)c2c1 (stereo unspecified) | 28.3
71 | C[C@@H]1CN([C@H](C)CO)C(=O)c2cc(NC(=O)Cc3ccccc3)ccc2O[C@H]1CN(C)Cc1ccc(Cl)c(Cl)c1 | ?
72 | Nc1cccc(-c2nc3ccccc3o2)c1 | 38.5
73 | C[C@@H]1CN([C@H](C)CO)C(=O)c2cc(NC(=O)NC3CCCCC3)ccc2O[C@H]1CN(C)Cc1ccncc1 | 8.0
74 | C[C@H]1CN([C@@H](C)CO)C(=O)Cc2cc(NC(=O)Nc3ccccc3)ccc2O[C@@H]1CN(C)Cc1ccc(C(F)(F)F)cc1 | 54.2
75 | C[C@@H]1CN([C@H](C)CO)C(=O)c2cc(NC(=O)C3CC3)ccc2O[C@@H]1CN(C)S(=O)(=O)c1ccc(F)cc1 | -11.8
76 | COc1ccc(S(=O)(=O)Nc2ccc3c(c2)C(=O)N([C@@H](C)CO)C[C@H](C)[C@@H](CN(C)Cc2ccc4c(c2)OCO4)O3)cc1 | 8.8
77 | CC(=O)c1cccc(NC(=O)CSc2nccc(C)n2)c1 | -18.7
78 | C[C@H]1CN([C@@H](C)CO)C(=O)Cc2cc(NC(=O)CCN3CCOCC3)ccc2O[C@H]1CN(C)CC1CCCCC1 | -4.9
79 | C[C@H](CO)N1C[C@H](C)[C@H](CN(C)Cc2ccncc2)Oc2ccc(NC(=O)Nc3ccc4c(c3)OCO4)cc2CC1=O | 1.8
80 | COc1ccc(C(NC(C)=O)c2c(O)ccc3ccccc23)cc1OC (stereo unspecified) | -20.5

The list goes on, overlapping the part above by four compounds.
cpd | SMILES | NOMO-1 viab
77 | CC(=O)c1cccc(NC(=O)CSc2nccc(C)n2)c1 | -18.7
78 | C[C@H]1CN([C@@H](C)CO)C(=O)Cc2cc(NC(=O)CCN3CCOCC3)ccc2O[C@H]1CN(C)CC1CCCCC1 | -4.9
79 | C[C@H](CO)N1C[C@H](C)[C@H](CN(C)Cc2ccncc2)Oc2ccc(NC(=O)Nc3ccc4c(c3)OCO4)cc2CC1=O | 1.8
80 | COc1ccc(C(NC(C)=O)c2c(O)ccc3ccccc23)cc1OC (stereo unspecified) | -20.5
81 | C[C@@H]1CN([C@H](C)CO)C(=O)c2cc(NC(=O)Nc3cccc4ccccc34)ccc2O[C@H]1CN(C)S(=O)(=O)c1cn(C)cn1 | 1.2
82 | CCCCc1ccc(NC(=O)N=S2CCN(C(=O)c3ccc(Cl)cc3)CC2)cc1 | 63.6
83 | Cc1ccc(-n2c(SCC(=O)Nc3ccc(C(N)=O)cc3)nnc2-c2ccc(Cl)cc2)cc1 | -14.9
84 | C[C@@H]1CN([C@H](C)CO)C(=O)c2cccc(NS(=O)(=O)c3ccccc3)c2O[C@H]1CN(C)Cc1ccc(Cl)c(Cl)c1 | 8.5
85 | C[C@H]1CN([C@@H](C)CO)C(=O)c2cc(NC(=O)CCN3CCOCC3)ccc2O[C@H]1CN(C)S(=O)(=O)c1ccc(Cl)cc1 | 8.8
86 | COc1cccc(C(=O)NC(c2ccccc2OC)c2c(O)ccc3ccccc23)c1 (stereo unspecified) | 2.0
87 | Cc1ccc(O)c(C2=Nc3ccccc3N=C(C(F)(F)F)C2)c1 | 89.1*
88 | COCCSc1nnc(NC(=O)c2sc3ccccc3c2Cl)s1 | 3.4
89 | C[C@@H]1CN([C@@H](C)CO)C(=O)c2cc(NC(=O)C3CCCCC3)ccc2O[C@H]1CN(C)Cc1ccc(C(=O)O)cc1 | -16.5
90 | Cc1noc(C)c1NC(=O)N(C)C[C@H]1Oc2ccc(NC(=O)C3CC3)cc2C(=O)N([C@H](C)CO)C[C@H]1C | 8.2

Only part of the results is shown; count on the stated rates, not on these rows.
